Screening results from PubChem.
TRPML1 inh: inhibitors of human TRPML1 channel; Q9GZU1; TRPML1-inducible cells, Ca2+ dye fluorescence, FDSS; stronger effect = lower value; inhibition of EC80 agonist-evoked calcium signal; activity change, negative = inhibition, % (concentration not given with the values); 390,000 tested, 0.02% active; AID 624415; in the data active means activity change below about -50%; inconclusive means about -30% to -50%; inactive means above about -30%;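 also: stimulus is agonist 54-4 at its EC80 concentration; % is scaled to controls: 0 for no effect and ±100 for the full control effect; compound concentration not given in the record; the text of the record puts the active cut at -80%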
Target sequence (Q9GZU1 whole entry, looked up): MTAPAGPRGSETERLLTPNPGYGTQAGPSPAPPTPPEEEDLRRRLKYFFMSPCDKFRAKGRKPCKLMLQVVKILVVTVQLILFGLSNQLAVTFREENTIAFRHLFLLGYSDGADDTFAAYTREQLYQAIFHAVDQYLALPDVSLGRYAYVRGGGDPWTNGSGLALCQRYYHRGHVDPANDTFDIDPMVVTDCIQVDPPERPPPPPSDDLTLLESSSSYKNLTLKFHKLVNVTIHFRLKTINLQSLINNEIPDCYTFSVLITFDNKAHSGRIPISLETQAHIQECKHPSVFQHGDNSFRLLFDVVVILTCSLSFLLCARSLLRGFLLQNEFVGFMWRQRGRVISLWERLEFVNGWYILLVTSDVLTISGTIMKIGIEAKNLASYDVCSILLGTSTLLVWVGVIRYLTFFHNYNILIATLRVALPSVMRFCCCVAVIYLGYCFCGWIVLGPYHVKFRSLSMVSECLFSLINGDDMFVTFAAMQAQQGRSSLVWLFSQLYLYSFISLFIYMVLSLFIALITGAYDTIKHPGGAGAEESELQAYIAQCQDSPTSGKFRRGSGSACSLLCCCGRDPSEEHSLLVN
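TRPML1-DL cells, Tet-induced overnight (~16 h, 37 °C) at 1,500 cells/well, were loaded with Ca8 no-wash dye plus quencher for 45-90 min at room temperature. Compounds were pinned during FDSS kinetic reading; agonist 54-4 at EC80 (4 uM final) then added.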
PINK1 expr mod: modulators of PINK1 expression; PINK1 immunofluorescence, high-content cytometry, 24 h; Potency, µM (highest dose often 76.6 µM), without a hit: top-dose activation (PINK1 increase), actives largely listed as activators; 410,000 tested, 0.2% active; AID 624263; active = well fitted activation curve with a large enough effect; inconclusive = small, poorly fitted or top-dose-only effect; inactive = flat fitted curve, though single readings scatter; cell line not stated here;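 also: potency is read from the fitted curve at half-maximal effect; % of control where 0% means no effect; nearly all actives have a fitted effect of over 65% in size; a mitochondrial uncoupler was the plate control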
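Stable cell line, 250 cells/well, 12 h attachment; compounds pinned at 5 concentrations, 24 h; CCCP control. Fixed with nuclear dye, primary antibodies 12 h at 10 degrees C, secondary plus cell stain; laser-scanning cytometer read.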
D2 ag: activates the human D2 dopamine receptor; P14416; DiscoveRx PathHunter D2 beta-arrestin, luminescence, 90 min; 100% = 57 uM dopamine signal; activation, % (no concentration beside the values); 360,000 tested, 0.084% active; in the data active = activation above about 40%; inconclusive = about 15% to 40%; inactive = below about 15%; also: compound concentration not given in the record; the text of the record calls up to 30% inactive
Target sequence (P14416 whole entry, looked up): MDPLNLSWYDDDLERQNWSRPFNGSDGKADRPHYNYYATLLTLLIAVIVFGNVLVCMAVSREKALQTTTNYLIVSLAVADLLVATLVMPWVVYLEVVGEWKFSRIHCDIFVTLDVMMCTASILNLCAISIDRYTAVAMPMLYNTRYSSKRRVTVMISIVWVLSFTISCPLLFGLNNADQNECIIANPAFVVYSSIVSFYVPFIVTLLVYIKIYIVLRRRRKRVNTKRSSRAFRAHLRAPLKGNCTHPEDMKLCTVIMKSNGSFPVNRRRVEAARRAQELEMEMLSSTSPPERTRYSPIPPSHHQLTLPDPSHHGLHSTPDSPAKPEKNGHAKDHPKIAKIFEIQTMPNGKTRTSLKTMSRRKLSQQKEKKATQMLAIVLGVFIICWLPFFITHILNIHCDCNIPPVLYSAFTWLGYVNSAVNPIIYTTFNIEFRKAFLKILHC
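DiscoveRx PathHunter D2 beta-arrestin cells (2,100/well) attached overnight, then compound-stimulated 90 min at 37 C in HBSS/10 mM HEPES/0.1% Tween-20 buffer; beta-galactosidase complementation read by luminescence after 1 h at ambient temperature. Dopamine 57 uM final (EC100) as control.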
Six1-Eya2 blk: inhibitors of human Six1/Eya2 interaction; AlphaScreen GST-Six1/His-Eya2 binding, biochemical; stronger effect = lower value; control for the full effect not named in the record; activity change, % (concentration not given with the values); 360,000 tested, 0.56% active; AID 651725; in the data active = activity change below about -65%; inconclusive = about -30% to -65%; inactive = above about -30%; also: % is scaled to controls: 0 for no effect and ±100 for the full control effect
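GST-Six1 + His-Eya2 (5X stock: 250/500 nM); Tris pH 8.0, 300 mM NaCl, 0.05% BSA, 0.02% Tween 20; GSH donor/Ni acceptor beads; 1 h 37 °C dark; AlphaScreen readout.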
TRPML1 ag: human mucolipin-1 channel agonism | Q9GZU1 | TRPML1-expressing cells, Ca2+ dye fluorescence, FDSS; host cell line not named in the record; reference of the full effect not given here | activation, % (no concentration beside the values) | 410,000 tested, 0.12% active; in the data active = activation above about 50%; inconclusive = about 30% to 50%; inactive = below about 30%; also: 0% is about no effect; the text of the record puts the active cut at 80%
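Cells: TRPML1-DL, 1X Tet inducer, ~16 h at 37 degrees C/5% CO2. Dye: ABD Ca8 no-wash + quencher, 45-90 min RT. Read: 10 s baseline, compound add, 110 s agonist phase; 54-4 EC80 (4uM final), 110 s antagonist phase.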
D2 PAM: human D2 receptor positive allosteric modulation. P14416. DiscoveRx D2 beta-arrestin cells, luminescence, 90 min; 100% = 57 uM dopamine signal. potentiation, % (no concentration beside the values). 360,000 tested, 0.23% active. AID 624464; active = potentiation of 50% or more; inconclusive = 30% to 50%; inactive = 30% or less;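 also: compound concentration not given in the record; tested on top of an EC20 dose of dopamine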
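PathHunter D2 cells, attached overnight at 37 deg C, received compound in DMSO plus dopamine at EC20 (50 nM final) for 90 min at 37 deg C. Beta-arrestin recruitment was read as luminescence after 1 h with detection reagent at ambient temperature.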
The depositor's hits bear a star; ? = inconclusive; nt = no result given; & = joins results of further samples; [ ] = remark or other dose.

SMILES | TRPML1 inh | PINK1 expr mod | D2 ag | Six1-Eya2 blk | TRPML1 ag | D2 PAM
CCOc1ccc(-c2cc3nc(C4CCN(C(=O)OC(C)(C)C)CC4)c(C(=O)Nc4cccc(Cl)c4C)cn3n2)cc1 | 24.9 | 1.8% | nt | nt | -0.2 | nt
Cc1ccc(-n2nc(C)c3c2C(Br)C(C)(C)CC3=O)nc1 (stereo not given) | -8.5 | 4.0% | 7.5 | 0.2 | 1.4 | 5.8
Cc1cccc(NS(=O)(=O)c2cccc(C(=O)NCC3(N4CCCCC4)CCCCC3)c2)c1 | 1.4 | 0.8% | -4.3 | 1.9 | 0.7 | -28.4
COC(=O)c1ccc(Oc2coc3cc(OCc4ccc([N+](=O)[O-])cc4)ccc3c2=O)cc1 | -19.1 | 0.0% | -1.4 | 4.4 | -0.1 | -8.2
COc1ccc(NC(=O)CN2C(=O)CC(c3ccc(C)c(C)c3)=Nc3ccccc32)cc1OC | 2.9 | -1.5% | nt | nt | -0.3 | nt
COc1ccccc1N1CCN(c2ncc3c(n2)CCN(Cc2ccccc2F)C3)CC1 | -20.3 | 2.5% | nt | nt | -0.4 | nt
O=c1c2ccccc2c(=O)n(Cc2ccccc2)n1Cc1ccccc1 | 33.5 | ? | -4.5 | 32.3 | 3.4 | -7.3
N#Cc1cn(CCOC(=O)c2cccc(C(F)(F)F)c2)c(=O)[nH]c1=O | -0.3 | -0.9% | -3.7 | 2.4 | 0.1 | -4.5
O=C(COC(=O)c1cc(Cl)ccc1O)Nc1ccccc1C(=O)NC1CC1 | -2.9 | 1.7% | -2.8 | 4.9 | 0.4 | -0.7
Cc1ccc(S(=O)(=O)N2[C@@H](c3ccccc3F)C(C(=O)O)=CC[C@H]2c2ccc(C(C)C)cc2)cc1 | -3.0 | 0.0% | 2.0 | -9.1 | -0.3 | 1.2
COc1ccccc1C(=O)Nc1ccnn1C1CCN(Cc2cn(C)c3ccccc23)CC1 | 8.9 | 5.5% | 3.4 | -19.3 | 0.0 | -9.6
O=C1COc2ccc(C(=O)COC(=O)c3sc4ccccc4c3Cl)cc2N1 | 23.8 | -0.6% | -4.6 | -1.2 | 1.8 | -4.0
C=CCn1c(CSc2nc3ccccc3s2)n[nH]c1=S | -14.3 | -0.7% | -3.1 | -5.8 | 1.9 | -0.9
O=C(O)C1C2C=CC(C2)C1C(=O)NCc1ccc(Cl)c(Cl)c1 (stereo not given) | 5.7 | -1.0% | 0.5 | 7.3 | 1.3 | -10.1
CCN(C[C@H]1N[C@@](Cc2ccccc2)(C(=O)OC)[C@H]2C(=O)N(Cc3ccccc3)C(=O)[C@@H]12)S(=O)(=O)c1ccc(OC(F)(F)F)cc1 | -18.7 | -1.1% | 1.0 | -1.1 | 0.3 | 4.1
COc1cc(Br)cc(CN2CCN(c3ncccn3)CC2)c1O | -8.7 | -0.6% | 52.2* | 1.8 | 0.9 | 81.4*
CCOC(=O)C1CCCN(C(=O)C2CCN(S(=O)(=O)c3c(C)noc3/C=C/c3ccc(C)cc3)CC2)C1 (stereo not given) | -9.7 | -0.2% | nt | nt | 20.9 | nt
COc1cc(OC)cc(-c2cc3nc(C)c(CCC(=O)Nc4nc(C)cs4)c(C)n3n2)c1 | 1.3 | 11.2% | -0.3 | -7.8 | -0.5 | 3.4
CC(C)(C)OC(=O)C[C@@H]1C/C=C\C[C@H](CC(=O)N[C@@H](CO)Cc2ccccc2)C(=O)N[C@H](C(C)(C)C)COC1=O | 1.9 | -0.4% | -3.1 | -5.4 | -0.6 | -3.6
CN(C(=O)CC1C(=O)NCCN1Cc1ccc(F)cc1)C1CCOCC1 (stereo not given) | 8.4 | -2.6% | -2.1 | 1.3 | 0.9 | 1.8
CCC(c1nnc(SCC(=O)Nc2c(F)cccc2F)n1Cc1ccccc1)N(C)C (stereo not given) | 28.6 | -1.5% | -1.3 | 1.6 | 0.6 | -10.4
O=C(c1ccc2ncsc2c1)N1CCN(c2nc3ccccc3s2)CC1 | 3.4 | 2.0% | 3.4 | -5.8 | 0.8 | 1.6
COc1ccc(NC(=O)COC(=O)c2ccc(OCc3ccc(Cl)cc3Cl)c(OC)c2)c(OC)c1 | -6.2 | -0.4% | 0.5 | 1.3 | 0.8 | -15.0
CCc1nn(CCCC(=O)NC2CCCCC2C)c(=O)c2cc3occc3n12 (stereo not given) | -0.9 | 2.9% | -7.2 | -3.6 | 0.0 | -14.1
O=C(O)c1cc2ncc(CCO)cn2n1 | 23.1 | -0.2% | 0.2 | -2.6 | -0.1 | 2.1
O=C(CCC(=O)c1cccs1)Nc1nnc(C2CC2)s1 | 26.7 | -0.4% | 0.8 | 1.0 | 0.5 | -5.8
O=C(Nc1cc(Cl)ccc1Cl)c1cc(S(=O)(=O)N2CCCc3ccccc32)ccc1F | 20.4 | 0.4% | nt | nt | 1.9 | nt
Brc1ccc(CSc2nccn2-c2ccccc2)cc1 | 57.0 | 1.3% | 0.2 | -27.6 | 3.1 | -12.2
CCC(=O)n1nc(-c2ccc(OC)cc2)nc1NCc1cccs1 | -2.0 | 4.3% | -4.0 | 0.1 | -0.3 | -6.7
CC(C)NC(=O)Nc1ccc2c(c1)C(=O)N([C@H](C)CO)C[C@H](C)[C@@H](CN(C)S(=O)(=O)c1cccs1)O2 | -18.9 | -1.5% | -0.8 | 6.0 | -0.3 | -5.5
Cn1cccc1C(=O)Nc1ccc(Cl)c(S(=O)(=O)N2CCCCC2)c1 | -5.2 | -0.4% | 4.8 | -19.3 | 0.2 | 5.5
COc1ccc(NC(=O)CSCC(=O)N(C)Cc2ccc3c(c2)OCCO3)cc1 | -3.3 | 5.0% | 1.9 | 1.1 | 3.6 | 11.2
COc1cc(CNS(=O)(=O)CCl)cc(OC)c1OC | -0.4 | 2.0% | 0.8 | 2.7 | 0.2&-0.6 | 2.2
CC(C)CC1=NC(C(F)(F)F)(C(F)(F)F)c2c(n(CC(C)C)c(=O)[nH]c2=O)N1 | -19.1 | 10.2% | -0.1 | 6.5 | 0.9 | -12.9
CC(C)C[C@H](NC(=O)N1CCn2c1nc1ccccc12)C(=O)NCCc1ccccc1 | 6.4 | -1.6% | -2.0 | -0.6 | -0.5 | -10.8
CC(=O)Nc1ccc(S(=O)(=O)Nc2ccccc2C(=O)NCc2cccnc2)cc1 | 2.2 | 0.0% | -2.1 | 9.4 | -0.2 | -8.0
COC(=O)c1cc(S(=O)(=O)NCc2cccs2)c[nH]1 | -7.1 | 3.0% | -4.5 | 3.2 | -0.5 | -0.7
Cc1ccc(S(=O)(=O)N(CC(=O)Nc2ccc(F)cc2F)Cc2ccc(F)cc2)cc1 | 25.6 | -0.1% | nt | nt | 2.8 | nt
CN(C)CCCNC(=O)c1ccc(CN(c2ccccc2)S(C)(=O)=O)cc1 | 17.8 | 0.1% | -2.0 | 6.3 | 0.1 | 4.3
O=C(OCc1ccccc1)C1CCN(S(=O)(=O)c2cccs2)CC1 | -10.2 | 0.2% | -2.6 | 13.2 | -1.0 | -6.2

One compound at a time (already shown). Values in the order: TRPML1 inh, PINK1 expr mod, D2 ag, Six1-Eya2 blk, TRPML1 ag, D2 PAM
Record of CC(C)NC(=O)Nc1ccc2c(c1)C(=O)N([C@H](C)CO)C[C@H](C)[C@@H](CN(C)S(=O)(=O)c1cccs1)O2 : -18.9, -1.5%, -0.8, 6.0, -0.3, -5.5
Record of COc1cc(CNS(=O)(=O)CCl)cc(OC)c1OC : -0.4, 2.0%, 0.8, 2.7, 0.2&-0.6, 2.2
Record of CCc1nn(CCCC(=O)NC2CCCCC2C)c(=O)c2cc3occc3n12 (stereo not given) : -0.9, 2.9%, -7.2, -3.6, 0.0, -14.1
Record of O=C(CCC(=O)c1cccs1)Nc1nnc(C2CC2)s1 : 26.7, -0.4%, 0.8, 1.0, 0.5, -5.8
Record of Cc1ccc(S(=O)(=O)N(CC(=O)Nc2ccc(F)cc2F)Cc2ccc(F)cc2)cc1 : 25.6, -0.1%, nt, nt, 2.8, nt

(further entries)
SMILES | TRPML1 inh | PINK1 expr mod | D2 ag | Six1-Eya2 blk | TRPML1 ag | D2 PAM
Cc1ccc2nc(-c3ccco3)c(Cc3cccc(Cl)c3)n2c1 | nt | -0.4% | -6.7 | -18.6 | -0.3 | -10.2
COc1ccc(-c2nc(N)n[nH]2)cc1 | -14.7 | -1.1% | -1.8 | 2.9 | -1.0 | 6.8
CC1CCCC(C)N1CCCNC(=O)C(=O)Nc1ccc2nc3n(c(=O)c2c1)CCCCC3 (stereo not given) | 0.1 | -0.9% | -3.6 | -0.3 | -0.4 | -10.6
CCCCc1nnc(NC(=O)c2ccc(OCc3c(C)noc3C)cc2)s1 | 4.8 | 16.9% | -4.1 | -2.4 | -0.4 | -23.0
CN(C(=O)COC(=O)C1=COCCO1)C1(C#N)CCCCC1 | -15.5 | 1.2% | 2.7 | 4.6 | 0.9 | -16.1
COc1ccc(NC(=O)C(=O)NNC(=O)c2cccs2)cc1 | -14.6 | 1.2% | -2.4 | 1.0 | -0.1 | -1.7
COc1ccc(C2=NOC(C(=O)Nc3ccc(C(C)=O)cc3)C2)cc1OC (stereo not given) | 2.3 | 5.3%[38.3 µM] | -0.6 | -3.2 | 0.0 | -6.3
Cc1cc(C)c(C(N)=O)c(Nc2cccc(Cl)c2C)n1 | 27.2 | 2.6%[38.3 µM] | -0.2 | -1.1 | -0.2 | -14.6
CC1C(=O)N2CCCc3cc(NS(C)(=O)=O)cc1c32 (stereo not given) | 2.1 | 1.5% | 0.3 | 0.9 | -0.3 | 0.9
COc1ccc(-c2n[nH]c(=S)n2C2CCCCC2)cc1 | -1.1 | 2.0% | -1.1 | -2.2 | -0.7 | -23.0
Cc1ccc(/C=N/c2sc3c(c2C#N)CCC3)o1 | 5.4 | 2.5% | -2.2 | ? | 2.3 | -17.4
O=C(OCc1c(-c2ccccc2)ncc2ccccc12)c1ccco1 | 2.2 | -0.5% | 0.9 | 1.6 | 0.8 | -4.7
COc1ccc(S(=O)(=O)NCCSc2nnnn2-c2ccccc2)cc1OC | 8.8 | 0.5% | nt | nt | -1.2 | nt
CCOc1cccc(NC(=O)C2CC(=O)N(CC)C(=Nc3ccc(F)cc3)S2)c1 (stereo not given) | -20.8 | -0.6% | nt | nt | 4.2 | nt
COC(=O)c1cc(OC)c(OC)cc1N=CC1=C(O)CC(C)(C)CC1=O | 3.8 | -2.4% | 2.2 | -0.1 | 0.0 | 0.5
CCCS(=O)(=O)n1nc(-c2ccc(Br)cc2)cc1N | -3.9 | 5.7% | 5.4 | -0.8 | -0.3 | 3.5
COc1ccc(/C=N/Nc2nc(N3CCCC3)nc(N3CCCC3)n2)cc1 | -9.7 | 4.2% | -1.8 | -17.3 | 1.5 | -10.9
CCCCC1=CC2=CC(=O)C(C)(OC(=O)C3CCCC3)C(=O)C2=CO1 (stereo not given) | 37.7 | 4.3% | 5.8 | -2.6 | 5.0 | -1.8
CNC[C@@H]1OCc2cnnn2CCCC(=O)N([C@H](C)CO)C[C@H]1C | 5.1 | 1.0% | -1.0 | 8.8 | -0.6 | 4.3
